Source: PubChem BioAssay
WNV protease inh = inhibitors of WNV NS2B-NS3 protease, primary screen, biochemical, fluorogenic substrate. Genome polyprotein (West Nile virus), P06935. fluorogenic substrate Ex360/Em465; active compounds read low. AID 577, 2007. 65,000 compounds, 0.18% hits. z-score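 (tested at a level between 10 and 100 µM)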;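 active means z-score at -3 or under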;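 further: score is relative to mean and spread of the compound wells of a plate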
Target sequence (P06935 1371-1501 limits assumed): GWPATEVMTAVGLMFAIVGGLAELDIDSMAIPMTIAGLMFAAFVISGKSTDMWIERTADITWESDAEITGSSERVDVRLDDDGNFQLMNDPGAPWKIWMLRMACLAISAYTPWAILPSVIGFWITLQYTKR
Target sequence (P06935 1502-1679 limits assumed): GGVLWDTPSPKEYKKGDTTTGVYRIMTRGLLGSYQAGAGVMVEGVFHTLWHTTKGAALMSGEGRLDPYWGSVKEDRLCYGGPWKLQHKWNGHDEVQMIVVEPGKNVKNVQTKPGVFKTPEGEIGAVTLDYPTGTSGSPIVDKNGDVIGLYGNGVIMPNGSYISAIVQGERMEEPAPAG
MT1-MMP promoter = inhibitors of MT1-MMP promoter transcription, cell-based, luciferase reporter, luminescence (AID 618); MT1-MMP promoter luciferase reporter cells, luminescence; 87,000 compounds, 0.62% hits; calls from a first round at 10 µM; hits with a dose series show EC50 in µM;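 active means over half of the reporter light lost at 10 µM or EC50 under 50 µM; inactive means the rest and hits that failed the dose series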;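 further: actives suppress MT1-MMP promoter-driven transcription so potencies describe inhibitors; HT1080 fibrosarcoma cells; overnight exposure; toxic or luciferase-blocking compounds were not removed from the actives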
Hsc70 ATP site = Hsc70 inhibitors, probe displacement, primary screen, biochemical, fluorescence polarization (AID 568) | Hsc70 fluorescence polarization, probe displacement; higher % means a stronger effect; strong numbers were not always called active | 83,000 tested, under 10 active | one-dose displacement, % at 20 µM; IC50 in µM for titrated hits | Heat shock cognate 71 kDa protein (Homo sapiens);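 active means displacement above 50% without optical interference and an IC50 on retest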;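 further: ATPase domain with a fluorescein-tagged ATP probe; 0% = vehicle and 100% = excess ADP; read after one hour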
Active calls of the source: *; i = inactive; nt = no result given.

The first 4 compounds, to show the layout:
SMILES	WNV protease inh	MT1-MMP promoter	Hsc70 ATP site
O=C(COC(=O)CC12CC3CC(CC(Br)(C3)C1)C2)NC(=O)NCc1ccco1	nt	i	-2.1%
Cn1c(=O)cc(SCC(=O)NCC2CCCO2)c2ccc(Cl)cc21 (centres undefined)	-1.1	i	-1.1%
Cc1ccccc1N(CC(N)=O)S(C)(=O)=O	0.62	i	3.9%
Cc1cc(C(=O)NCCCN2CCOCC2)n(-c2ccccc2)n1	-0.51	i	-0.3%

The list itself, previewed entries included:
SMILES	WNV protease inh	MT1-MMP promoter	Hsc70 ATP site
O=C(COC(=O)CC12CC3CC(CC(Br)(C3)C1)C2)NC(=O)NCc1ccco1	nt	i	-2.1%
Cn1c(=O)cc(SCC(=O)NCC2CCCO2)c2ccc(Cl)cc21 (centres undefined)	-1.1	i	-1.1%
Cc1ccccc1N(CC(N)=O)S(C)(=O)=O	0.62	i	3.9%
Cc1cc(C(=O)NCCCN2CCOCC2)n(-c2ccccc2)n1	-0.51	i	-0.3%
CCC(=O)Nc1cccc(-c2nc3ccccc3c(=O)o2)c1	0.06	i	-1.0%
O=C(NC1CCCCC1)C1CN(S(=O)(=O)c2ccccc2)CCN1S(=O)(=O)c1ccccc1 (centres undefined)	-0.57	i	-0.5%
c1ccc(C2(Cn3ccc4ccccc43)OCCO2)cc1	0.88	i	-2.3%
COC(=O)CSc1nc(C)c(C(C)=O)cc1C#N	-0.8	i	-5.3%
Cc1cc(C)n2nc(CC(=O)NC3CCCC(C)C3C)nc2n1 (centres undefined)	-1.1	i	-11%
Clc1ccc(OCCN2CCN(c3ncnc4sccc34)CC2)cc1	0.49	i	-3.1%
CCOC(=O)C(C)Sc1nnc(Cc2cc(=O)[nH]c(=O)[nH]2)n1-c1ccc(Cl)cc1 (centres undefined)	0.14	i	2.6%
CCOC(=O)c1[nH]c2ccc(Br)cc2c1NC(=O)CCN1CCN(C(=O)OCC)CC1	-0.74	i	3.7%
Cn1cnc2cc(NC(=O)c3ccco3)ccc21	0.12	i	1.7%
O=C(Nc1cccc(C(F)(F)F)c1)c1cc(-c2cccs2)on1	-0.8	i	6.2%
O=C(Nc1ccccc1C(F)(F)F)c1cccnc1	-0.49	i	-2.9%
O=C1CCCC/C1=C/Nc1ccc2c(c1)OCO2	-0.08	i	2.4%
O=C1CC(c2ccccc2)n2nc(N3C(=O)CCC3=O)nc2N1 (centres undefined)	-0.38	i	6.5%
CCOC(=O)c1nc(NCc2cccnc2)c2ccccc2n1	2.1	i	-1.3%
C=CCn1c(CCNC(=O)c2cccs2)nnc1SCC(=O)Nc1cccc(C(C)=O)c1	-0.3	i	-4.4%
COc1ccc(C(=O)Nc2ccc(OC)c(OC)c2)cc1	-1	i	2.2%
O=C(CSc1n[nH]c(=O)[nH]c1=O)c1ccccc1	-0.26	i	-5.0%
C/C(Cl)=C\Cn1c(N2CCCCCC2)nc2c1c(=O)n(C)c(=O)n2C	-0.85	i	-1.6%
CC1(C)CC(=O)C2=C(C1)Nc1[nH]c(=S)[nH]c(=O)c1C2c1ccccc1 (centres undefined)	-0.63	i	-4.7%
CCCCn1c(SCC(=O)NCCc2ccc(OC)c(OC)c2)nc2c1c(=O)n(C)c(=O)n2C	-0.09	i	-1.0%
CCOc1cc(-c2c(C)c(CC)nc(N)c2C#N)ccc1O	-0.31	i	-2.2%
Cc1ccc(C(=O)C2=C(O)C(=O)N(CCCN3CCOCC3)C23C(=O)N(C)c2ccccc23)o1 (centres undefined)	-1.7	i	-2.1%
N#Cc1c(-c2ccccc2Cl)cc(C2CC2)nc1N	0.07	i	-3.5%
Cn1nc(-c2ccccc2)c(-c2nc(-c3cccc(Cl)c3)no2)c1Cl	nt	i	-3.2%
COCc1cc(C)nc(Nc2ccc(C)c(C)c2)c1C#N	-0.72	i	0.2%
COc1cc(NC(=O)C2CC(=O)NC3=C2C(=O)CCC3)c(OC)cc1Cl (centres undefined)	nt	i	6.3%
Cc1ccc(NC(=O)c2cc(N(C)C)ccc2[P+](=O)O)cc1	-0.73	i	5.8%
CCOc1ccccc1-c1nc2c([nH]1)c(=O)n(C)c(=O)n2C	0.15	i	-0.3%
CCCCN(CC)CCCNC(=O)c1cc2cc3ccc(OC)cc3nc2o1	6.3	i	-5.0%
Cc1ccc(C)c(OCC(=O)NCCN(C)C)c1	nt	i	2.6%
COc1cc(NC(=O)C2CC(c3cccc(OC)c3OC)=NO2)cc(OC)c1OC (centres undefined)	0.14	i	-0.8%
COc1ccc2oc(C(=O)OCC(=O)c3ccc4c(c3)OCCO4)c(C)c2c1	-0.98	i	-4.9%
Cc1nn(-c2ccccc2)c2sc(C(=O)C(C#N)c3ccccn3)cc12 (centres undefined)	1.3	i	-6.5%
Cc1cccnc1NC(=O)C12CCC(C)(C(=O)O1)C2(C)C (centres undefined)	nt	i	-0.3%
Sc1oc(-c2ccccc2)cc1C=Nc1ccccc1	nt	i	-1.3%
CCC(C)(C)NC(=O)C(OC(=O)c1ccco1)c1ccccc1OC (centres undefined)	-0.15	i	0.9%
Cc1ccc(NC(=O)CCN2C(=O)CSC2=O)cc1	nt	i	-0.6%
O=C(CNC(=O)Cn1cnc2sc3c(c2c1=O)CCCC3)NCc1ccccn1	0.82	i	1.5%
O=C(Nn1cnnc1)c1csc2ccccc12	-0.65	i	0.3%
O=C(O)COc1cccc(NC(=O)c2ccccc2)c1	-1.1	i	-0.2%
CCN1C(=O)C(CC(=O)N2CCN(C(c3ccccc3)c3ccccc3)CC2)N(CC)C1=O (centres undefined)	-0.59	i	-8.0%

A portion from further up, as a working copy:
SMILES	WNV protease inh	MT1-MMP promoter	Hsc70 ATP site
CCC(C)(C)NC(=O)C(OC(=O)c1ccco1)c1ccccc1OC (centres undefined)	-0.15	i	0.9%
Cc1ccc(NC(=O)CCN2C(=O)CSC2=O)cc1	nt	i	-0.6%
O=C(CNC(=O)Cn1cnc2sc3c(c2c1=O)CCCC3)NCc1ccccn1	0.82	i	1.5%
O=C(Nn1cnnc1)c1csc2ccccc12	-0.65	i	0.3%
O=C(O)COc1cccc(NC(=O)c2ccccc2)c1	-1.1	i	-0.2%
CCN1C(=O)C(CC(=O)N2CCN(C(c3ccccc3)c3ccccc3)CC2)N(CC)C1=O (centres undefined)	-0.59	i	-8.0%

Following part
SMILES	WNV protease inh	MT1-MMP promoter	Hsc70 ATP site
CCN(Cc1ccccc1)C(c1cc2cc(C)cc(C)c2[nH]c1=O)c1nnnn1CCOC (centres undefined)	0.77	i	-8.3%
CC(C)c1nnc(NC(=O)CN2C(=O)c3ccccc3C2=O)s1	1.4	i	3.1%
COc1cc(-c2nnc(COC(=O)C3c4ccccc4Oc4ccccc43)o2)cc(OC)c1OC	-0.92	i	-4.7%
Cc1onc(-c2c(F)cccc2Cl)c1C(=O)Nc1cccc(Cn2cccn2)c1	-0.4	i	-6.8%
CC(=O)OC(C(=O)NC1CCCCC1)c1ccccc1 (centres undefined)	0.26	i	4.9%
CCOC(=O)C1CCN(Cc2ccc(F)cc2)CC1	-0.86	i	0.3%
O=C1CCC(=O)N1CCC(c1ccc(F)cc1)c1ccco1 (centres undefined)	-0.86	i	1.4%
Cc1nnc(C)n1/N=C/c1cc(Br)ccc1O	2.3	i	8.7%
CCn1c(SC)nc2c(c1=O)SC(C)C2 (centres undefined)	0.14	i	3.2%
COc1cccc2cc(C(=O)N(C)C)c(=O)oc12	0.12	i	1.6%
Cc1ccc(S(=O)(=O)N=Nc2c(O)[nH]c3ccccc23)cc1C	nt	i	2.4%
O=C(Nc1cc(=O)[nH]c2ncnn12)c1ccccc1Cl	1.3	i	-4.1%
CCOCCCNc1nc2ccccc2[nH]1	-0.55	i	-11%
CCOc1cc(C2CC(=O)Nc3cc(C)c(C)cc32)ccc1O (centres undefined)	0.35	i	-6.9%
O=C(NC(=S)NNC(=O)c1ccccc1[N+](=O)[O-])c1ccccc1	nt	i	2.7%
COc1ccc2nc(NC(=O)Cc3ccc(OC)c(S(=O)(=O)N4CCOCC4)c3)sc2c1	0.0013	i	1.2%
O=C(c1cc(NC(=O)C23CC4CC(CC(C4)C2)C3)cc(NC(=O)C23CC4CC(CC(C4)C2)C3)c1)N1CCCCC1	nt	i	1.1%
Cc1ccccc1NC(=O)c1cc(S(=O)(=O)N2CCCCC2)cs1	nt	i	2.8%
COc1ccc(C)cc1S(=O)(=O)NC1CCCCC1C (centres undefined)	-0.05	i	10%
CCOC(=O)N1CCN(CC(O)COc2c(OC)cccc2OC)CC1 (centres undefined)	-0.7	i	-1.0%
CCCC(C)NS(=O)(=O)c1ccc(OC)c(C)c1 (centres undefined)	nt	i	-1.4%
Cc1cc2c(cc1C)NC(CC(=O)NCc1ccccc1)C(=O)N2 (centres undefined)	0.12	i	-45%
Cc1nnc(SCCCn2c(N3CCCCC3)nc3c2c(=O)[nH]c(=O)n3C)s1	-0.42	i	-0.3%
O=C(Nc1ccccc1)C1CCN(C(=O)c2ccccc2)CC1	nt	i	-5.2%
Cc1onc(-c2ccccc2Cl)c1C(=O)Nc1ccc(-c2nnc3n2CCCCC3)cc1	-1.4	i	1.4%
CCCCS(=O)(=O)Nc1ccc2ncn(C)c(=O)c2c1	0.3	i	5.2%
O=C(NCCCCNC(=O)C1CCCC1)C1CCCC1	-0.82	i	2.1%
COc1cc(C)c(C(N)=O)c(OC)n1	-2.3	i	-6.1%
COC(=O)c1ccccc1NC(=O)Nc1ccc2c(c1)OCO2	nt	i	4.3%
O=C1C(C=NCc2ccccn2)=C(O)c2ccccc21	0.65	i	-5.3%
C=CCSC1=C(C#N)C(c2ccccc2C)CC(=O)N1 (centres undefined)	-0.21	i	1.9%
CN(C)C(CNc1nnnn1-c1ccccc1)c1ccco1 (centres undefined)	-0.84	i	-0.1%
CCN(CC)CCNC(=O)CCc1nn(C)c(=O)c2ccccc12	0.89	i	0.3%
Nc1n[nH]c(-c2ccccc2)c1-c1ccccc1	1.6	i	-3.5%
Cc1ccc(C)c(N(CC(=O)NC2CCCCC2)C(=O)CCC(=O)Nc2ccccn2)c1	0.41	i	-4.2%
CCOC(=O)c1c2c(n(C)c1COC)C(=O)C(=O)c1ccc(Br)cc1-2	nt	i	-1.5%
CCN(CC)S(=O)(=O)c1ccc(Cl)c(C(=O)Oc2cccnc2)c1	-0.76	i	1.8%
COc1cc(NC(=O)c2nccnc2C(=O)O)cc(OC)c1	0.36	i	5.8%
CC(NS(=O)(=O)c1ccc(Cl)cc1)C(c1cccs1)N1CCN(C)CC1 (centres undefined)	0.12	i	-4.6%
Cc1ccc(C)c2[nH]c(=O)c(CCNC(=O)CC(C)C)cc12	0.68	i	2.8%
O=c1cc(Nc2ccc3c(c2)OCCO3)[nH]c(=O)n1Cc1ccc(F)cc1	0.31	i	-4.2%
COC(=O)CCN(C)CCC(=O)OC	-0.22	i	-5.0%
COc1ccc(NC(=O)NC(C(F)(F)F)C(F)(F)F)cc1	-0.3	i	-7.2%
CCCCn1ccnc1C(=O)c1cccc(S(=O)(=O)N2CC(C)CC(C)C2)c1 (centres undefined)	nt	i	-0.5%
CCc1c(-c2ccccc2)nc(N)c(C#N)c1-c1cccs1	nt	i	0.5%
Cc1nn2cnc3sc4c(c3c2nc1=O)CCCC4	0.65	i	3.7%
Cc1csc(NC(=O)C2CCCN2C(=O)Oc2ccccc2)n1 (centres undefined)	-1.4	i	-3.2%
O=C(COc1ccccc1)Nc1nc(-c2cccs2)cs1	-1	i	5.1%
Cc1ccc(C(=O)N/N=C/c2sc(=O)n(Cc3cccc(C(=O)O)c3)c2Cl)cc1	nt	i	-0.3%
OC(COc1ccc2ccccc2c1)Cn1cncn1 (centres undefined)	nt	i	-1.7%
CCc1ccc(C2C(C(=O)O)c3ccccc3C(=O)N2C)cc1 (centres undefined)	nt	i	-3.1%
O=C(NCC1CCCO1)c1cc2n(n1)C(C(F)(F)F)CC(c1ccc(F)cc1)N2 (centres undefined)	-0.68	i	7.9%
Oc1ccc(Cl)cc1/C=N/c1nc2ccccc2[nH]1	-0.26	i	-2.1%
Clc1ccc(CSc2nnnn2-c2ccc3c(c2)OCO3)c(Cl)c1	nt	i	1.6%
O=C1CC(N2CCC(O)CC2)C(=O)N1c1ccc(Br)cc1 (centres undefined)	0.53	i	7.4%
Cn1c(=N)c(S(=O)(=O)c2ccc(F)cc2)cc2c(=O)n3ccccc3nc21	-1.2	i	-2.6%
CCN(CCCNC(=O)CC(C(=O)N1CCc2ccccc21)n1ccnc1)c1ccccc1 (centres undefined)	1.8	i	-0.6%
CCCCOC(=O)CSc1nc2c(c(=O)[nH]c(=O)n2C)n1C/C=C(\C)Cl	0.46	i	1.4%
O=C(NCc1ccco1)c1ccc(CS(=O)(=O)Cc2ccc(F)cc2)o1	-0.19	i	-2.4%
O=C(c1cnn2c(C(F)(F)F)cc(-c3ccc4c(c3)OCO4)nc12)N1CCCCC1	-0.79	i	0.2%
COc1ccc(C2(O)CCN(CC(=O)Nc3nccs3)CC2)c(OC)c1	-0.67	i	4.9%
CCCC(C(=O)Nc1nccs1)c1ccccc1 (centres undefined)	nt	i	-1.2%
O=C(c1oc(=O)c2ccccc2c1-c1ccccc1)N1CCOCC1	1.3	i	-12%

Individual results from the results shown:
CCCCOC(=O)CSc1nc2c(c(=O)[nH]c(=O)n2C)n1C/C=C(\C)Cl @ WNV protease inh: 0.46
OC(COc1ccc2ccccc2c1)Cn1cncn1 (centres undefined) @ Hsc70 ATP site: -1.7%
Cc1ccc(C(=O)N/N=C/c2sc(=O)n(Cc3cccc(C(=O)O)c3)c2Cl)cc1 @ Hsc70 ATP site: -0.3%
